# High-throughput results deposited in PubChem by several laboratories.
# CSC inhib = blocks cancer stem cells; inhibition, % at 7.5 µM; cancer stem cell-like cells viability, luminescence; AID 2717; 300,000 compounds, 1.1% hits;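 active = mean at 75% or more and at least half the replicates too; tested in HMLE shEcad cells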;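 note: 0% = median of negative and 100% = median of positive control wells; the first replicate is given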
# eIF4H FP inh = inhibitors of RNA binding by human eIF4H. 290,000 compounds, 0.94% hits. inhibition, % at 35 µM. AID 2012. eIF4H fluorescence polarization binding assay;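 active = 50% or more with normal probe brightness, or confirmed in later tests; about a fifth of its hits are not listed in these tables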;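 note: calls also rest on retests at 20 µM and on dose response follow-up; 0% = protein and probe with vehicle and 100% = probe without protein; strong numbers were not always called active; many hits fall short of the cut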
# Yeast UUG start = modulators of start codon recognition fidelity in yeast. S. cerevisiae UUG-firefly luciferase reporter, luminescence/redox ratio. activity score, % at 18.7 µM. 350,000 compounds, 0.13% hits;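 active = replicate mean at a twofold rise or more, about +100% in these data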;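 note: firefly luciferase made from a UUG start codon reports start codon fidelity; reporter light over untreated wells divided by growth signal over untreated wells; some hits fall short of that in this replicate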
# HIV Env fusion = HIV envelope-mediated fusion inhibition; HeLa-JRFL Env/CEM21 cell fusion, luciferase; AID 651610; 360,000 compounds, 1.1% hits; inhibition, % at 12.3 µM;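 active = mean replicate inhibition score of at least 50 and every replicate individually at or above 50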;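 note: 0% = plate neutral controls and 100% = maraviroc near 300 nM; one replicate is shown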
# PABP FP inh = PABP-poly(A) binding inhibition; AID 2014; inhibition, % at 35 µM; 290,000 compounds, 1% hits; PABP-poly(A) RNA binding, fluorescence polarization; P11940;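 active = 50% or more with normal probe brightness, or confirmed in later tests; about a fifth of its hits are not listed in these tables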;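 note: calls also rest on retests at 20 µM and on dose response follow-up; controls were probe without protein and protein plus probe with vehicle; some compounds called inactive have numbers as strong as hits; many hits fall short of the cut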
# Target sequence (P11940 whole entry, looked up): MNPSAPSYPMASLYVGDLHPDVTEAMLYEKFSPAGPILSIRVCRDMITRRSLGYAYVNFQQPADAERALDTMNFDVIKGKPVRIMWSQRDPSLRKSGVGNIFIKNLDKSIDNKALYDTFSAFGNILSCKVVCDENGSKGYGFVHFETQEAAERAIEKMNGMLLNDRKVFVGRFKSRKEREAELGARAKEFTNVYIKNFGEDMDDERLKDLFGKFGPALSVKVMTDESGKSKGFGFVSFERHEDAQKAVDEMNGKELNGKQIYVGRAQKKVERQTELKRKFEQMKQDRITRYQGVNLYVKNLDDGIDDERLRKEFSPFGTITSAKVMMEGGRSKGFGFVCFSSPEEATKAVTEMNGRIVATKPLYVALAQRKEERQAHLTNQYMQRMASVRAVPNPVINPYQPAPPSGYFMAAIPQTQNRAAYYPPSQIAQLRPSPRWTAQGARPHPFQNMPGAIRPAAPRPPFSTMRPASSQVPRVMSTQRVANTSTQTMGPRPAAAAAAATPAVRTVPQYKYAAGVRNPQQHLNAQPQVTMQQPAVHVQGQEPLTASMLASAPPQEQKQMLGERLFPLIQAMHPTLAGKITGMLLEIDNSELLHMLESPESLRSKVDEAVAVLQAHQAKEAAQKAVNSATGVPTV
# Rce1 inhib = yeast Ras-converting enzyme inhibition. Q03530. yeast membranes, quenched prenylated peptide cleavage fluorescence. calls only. 290,000 compounds, 0.27% hits. AID 2563;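 active = fall in fluorescence gain of 50% or more versus controls, with final raw signal at or below 3038400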;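 note: plate controls were neutral control wells for no effect and wells lacking membranes for full effect; tested at 10 µM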
# MT1-MMP act inh = MT1-MMP (human) activation inhibition; P50281; HT1080 RFP-PRO-GFP cells, GFP/RFP ratio fluorescence, overnight; percent of plate control window, DMSO zero; GFP/RFP ratio change, % at 20 µM; 360,000 compounds, 0.061% hits;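 active = GFP/RFP ratio change of at least 30% with cell ATP level not reduced by more than half and red fluorescence within 50% of control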; note: strong numbers were not always called active
#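 Test system: HT1080 RFP-PRO-GFP cells; Benchmarks: DMSO and RFP-L50D-GFP cell wells; Timing: cells overnight before dosing, compound overnight, 37 °C, 5% CO2; Compound: one 20 µM compound dose with 1% DMSO; Read-out: GFP/RFP fluorescence ratio.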
# MT1-MMP act inh RFP = further read-out of MT1-MMP act inh, marked with its call; RFP signal change, %; measured here: RFP expression control read;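 0 = vehicle wells; hits needed this value within 50% of zero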
# Numbers without * were called inactive; i = inactive; · = not tested or not shown. Rows are unselected; any-hit rate near 2.9%.
SMILES,CSC inhib,eIF4H FP inh,Yeast UUG start,HIV Env fusion,PABP FP inh,Rce1 inhib,MT1-MMP act inh,MT1-MMP act inh RFP
O=C(Nc1ccc(Br)cc1)Nc1ccccc1F,16,-7,-19,-69,-9,i,-2,-2
COC(=O)Cc1[nH]n(-c2ccccc2)c(=O)c1C(C)=Nc1ccccc1,3,0,-26,0,-1,i,-1,4
COc1cccc2c(=O)ccoc12,-2,-5,·,·,-5,i,5,3
CNNC(=S)NCCC1=CCCCC1,1,-5,·,2,8,i,-1,2
CN1CCN(C2Cc3ccc(Cl)cc3Sc3ccc(F)cc32)CC1 (centres undefined),101*,·,-22,16,·,i,-8,-4
CC(=O)Nc1ccc(SCC(=O)c2c(N)n(Cc3ccccc3)c(=O)n(C)c2=O)cc1,7,-1,-24,14,3,i,6,3
CCOC(=O)C1(CCOC)CCN(C2C3CC4CC(C3)CC2C4)CC1 (centres undefined),10,-4,1,13,-4,i,0,2
CC1(C)N=c2ccc([N+](=O)[O-])c(N)c2=[N+]1[O-],-14,-7,·,-4,2,i,4,1
Cc1nc2nc(C)c(NS(=O)(=O)c3cccs3)c(=O)n2[nH]1,9,0,-27,-1,7,i,-1,3
CCCCN(C(=O)c1cccs1)C1CCS(=O)(=O)C1 (centres undefined),-4,·,-12,-4,·,i,13,1
COc1ccc(NC(=O)COC(=O)c2ncc(Cl)c(Cl)c2Cl)c(OC)c1,-9,-8,-15,-14,-10,i,1,-4
Cc1cc(OCC(=O)NCc2ccccn2)c2c(C)cc(=O)oc2c1,-15,-7,-29,-6,-3,i,0,-1
CCOc1ccc(N2C(=O)CC(SC(=NC)Nc3ccc4c(c3)OCO4)C2=O)cc1 (centres undefined),0,-5,-32,·,-16,i,0,-3
Cc1cccc(OCCC(=O)NCC(=O)Nc2cccc(C)c2C)c1,-6,2,-8,12,-4,i,3,5
Cc1nc2ccsc2c(=O)n1-c1ccc(Cl)cc1,-7,-15,·,-12,-3,i,3,-1
CCCC(=O)Nc1ccc(Cl)c(NC(=O)C(C)(C)C)c1,-5,-3,-18,6,-11,i,2,3
Cc1coc2c1c(C)cc1oc(=O)c(CC(=O)NCC(=O)O)c(C)c12,5,-13,-15,-7,16,i,2,3
Cc1ccccc1N(C(=O)c1csnn1)C(C(=O)NC1CCCCC1)c1ccncc1 (centres undefined),19,2,-5,23,12,i,0,0
COc1ccccc1Nc1nc(N)nc(CSc2ncccn2)n1,-12,-2,-9,7,-10,i,3,4
Cc1ccc(N/N=C(\C#N)C(N)=S)cc1C,21,0,·,-12,-1,i,-5,-10
CCn1c(CC(=O)Nc2ccccc2F)nnc1SCC(=O)Nc1nnc(C)s1,-13,5,-14,6,4,i,1,4
CCOC(=O)N1CCN(c2cc(=O)n(-c3ccc(OC)cc3)c(=O)[nH]2)CC1,14,-15,-4,-78,2,·,-4,2
O=C(CSc1nnc(CNC(=O)c2ccccc2)o1)NCc1ccc(F)cc1,-4,-2,-1,-2,2,i,1,3
N#Cc1ccccc1NC(=O)COC(=O)c1ccc(F)cc1F,0,3,-11,-13,-2,i,0,0
CCOc1ccccc1Oc1coc2cc(OC)ccc2c1=O,4,-8,9,-122,-6,i,0,5
CN1CCN(S(=O)(=O)c2ccc(Nc3ccc(F)cc3)nc2)CC1,-8,·,·,2,·,i,1,3
N/C(=N\OC(=O)c1ccc([N+](=O)[O-])cc1)c1cccnc1,·,1,-10,-29,1,i,-7,-5
CCCCN(CC)S(=O)(=O)c1ccc(C(=O)Nc2nnc(COC)o2)cc1,·,-4,-31,·,-7,i,-2,-1
Cc1ccc(S(=O)(=O)N2CCC(C(=O)OCC(=O)N3C(C)CCCC3C)CC2)cc1C (centres undefined),·,·,-7,18,·,·,3,2
COc1ccccc1CC(=O)Nc1c[nH]c(=O)[nH]c1=O,-10,1,·,-32,-7,i,4,7
CN(C)C(=O)c1ccc(NC(=O)c2ccc(-c3ccc(Cl)cc3)o2)cc1,16,·,-2,0,·,·,-4,1
COc1ccc(C2=CC(=O)CC(C)(C)C2)cc1,-3,·,-18,-23,·,·,0,0
C=CCn1c(-c2ccc3[nH]c(C)c(C)c3c2)n[nH]c1=S,-6,4,-44,·,-5,i,5,-4
COc1ccccc1-c1nc(-c2ccccc2)[nH]c(=O)c1C#N,10,-2,-9,-6,-2,i,2,1
OCCN1CCN(C(=S)c2ccc(Br)cc2)CC1,-9,3,-14,-8,-2,i,-5,0
CCC/C(=N\NC(=O)CNC(=O)c1ccc(Cl)cc1)c1ccccc1,-3,-4,·,15,17,i,0,-3
COc1cccc(Nc2nc(-c3ccc4c(c3)OCCO4)cs2)c1,·,-16,·,·,-9,i,-2,-3
Cc1ccnc(NC(=O)c2cc(-n3cnnc3)ccc2Cl)c1,-11,11,17,-31,6,i,-3,4
O=C(c1cc2ncccn2n1)N1CCc2c([nH]c3ccccc23)C1c1ccccc1F (centres undefined),-5,-9,·,-1,0,i,-1,-3
CCOc1cc(C(=O)OCc2ccc(C(=O)OC)o2)cc(Br)c1OC,1,-4,·,·,1,i,·,·
COc1cc(O)cc(/C=C/c2ccccc2)c1,·,·,-25,-53,·,·,4,0
CC(=O)c1c(C)[nH]c(C(=O)OCC(=O)N(CC(C)C)C2CCS(=O)(=O)C2)c1C (centres undefined),·,·,-4,1,·,·,0,6
Cc1ccc(Sc2c(C)nn(C(=O)CNS(=O)(=O)c3ccc(F)cc3)c2C)cc1,1,-3,·,·,4,i,0,0
O=S(=O)(NCC(c1ccccc1)N1CCNCC1)c1ccc(Cl)cc1 (centres undefined),45,-2,3,-63,-8,·,-16,-8
CCc1nc2ccc(C(=O)Nc3cccc(NS(C)(=O)=O)c3)cn2c1N(C)Cc1nccn1C,·,·,-15,14,·,·,-1,2
CC(C)NC(=S)NNC(=O)C12CC3CC(CC(C3)C1)C2,-2,-18,-11,8,-3,i,7,4
COc1ccccc1CNC(=O)C1(C)CCN1C(=O)Cc1ccc(-c2ccccc2)cc1 (centres undefined),·,·,-9,45,·,·,-6,-24
COc1ccc(F)cc1S(=O)(=O)N1CCC2(CC1)OCCN2S(=O)(=O)c1cccs1,-6,·,16,-3,·,i,4,-2
Cc1cc(C)n(-c2nc3ccccc3c(=O)n2OCc2ccc(F)cc2)n1,-7,2,-4,·,-2,i,0,3
COc1cccc(C2CC(c3ccc(Cl)cc3)Nc3nc(N)nn32)c1 (centres undefined),-1,-3,-18,-4,-21,i,0,-1
N#Cc1nc(-c2ccccc2)oc1NCC1CCCO1 (centres undefined),-4,4,·,0,1,i,2,-1
c1cc2c(cc1Cn1cnnn1)OCO2,-9,12,1,-1,4,i,-2,-1
CCn1ncc(Cl)c1C(=O)NC(=S)Nc1c(C)cc(C)cc1[N+](=O)[O-],20,-1,-6,30,5,i,-9,-5
COc1ccc(C(=O)NNC(=S)NC(=O)c2ccccc2)cc1,4,15,-42,2,-7,i,8,0
Cn1cccc1CNC(=O)Nc1ccc(Cl)c(Cl)c1,-7,10,·,·,13,i,-2,-1
COc1cccc(-c2cnc3c(NC(C)=O)cc(-c4cc(F)ccc4OC)cn23)c1,·,·,-1,25,·,·,-1,-3
O/N=C/c1ccc(OCc2ccccc2F)c(Cl)c1,7,-2,·,-104,4,i,1,0
CCCn1nc(C(=O)Nc2nnc(C3CC3)s2)c2ccccc2c1=O,3,·,-8,·,·,·,8,3
CCn1c(SCC(=O)Nc2ccc3c(c2)OCO3)nnc1-c1cnccn1,-7,1,-21,-5,-5,i,0,0
CC1=C(/C=C/C(C)=C/C=C/C(C)=C\C(=O)O)C(C)(C)CCC1,9,·,7,31,·,i,1,4
# (continued)
SMILES,CSC inhib,eIF4H FP inh,Yeast UUG start,HIV Env fusion,PABP FP inh,Rce1 inhib,MT1-MMP act inh,MT1-MMP act inh RFP
COc1ccc(CN(CC(=O)NCc2ccc3c(c2)OCO3)C(=O)c2csnn2)cc1,-8,-14,-1,16,-2,i,1,2
C#CC1(O)CC(C)N(C)C(C)C1 (centres undefined),-18,-9,-12,-64,1,i,-2,-1
Cc1cccc(C)c1NC(=O)NN=C1CCCCC1,-17,10,3,5,-5,i,4,2
CCCCCC(=O)N1C[C@H](n2cc(COC(=O)c3ccccc3)nn2)[C@@H](O)C[C@@H]1c1ccccc1,·,·,-5,-2,·,·,1,2
N#Cc1c(-c2ccc([N+](=O)[O-])cc2)nc2n(c1=O)CCS2,-9,2,-14,9,10,i,-1,0
CC(C)(C)NC(=O)NC(=O)COC(=O)c1cccc(S(=O)(=O)N2CCCCC2)c1,11,-5,·,-4,0,i,6,5
CC(=O)Nc1cccc(C(=O)OC(C)C(=O)NCc2ccc3c(c2)OCO3)c1 (centres undefined),-9,·,-1,-1,·,i,0,6
CCC(=O)Nc1ccc(-c2nc3ccccc3c(=O)o2)cc1,·,-6,·,1,-7,i,7,5
COc1ccc(Cl)cc1NC(=O)CN(C)C(=O)CCSc1ccc(C)cc1,-4,·,-15,·,·,·,2,-1
[2H]C(CCOS(N)(=O)=O)c1ccc(C(C)(C)C)cc1 (centres undefined),19,6,-8,2,8,i,-3,0
Fc1ccc(Cl)cc1/C=N/n1cnnc1SCc1ccccc1,-12,-2,-21,-1,-1,i,0,-3
O=C1CCC([N+](=O)[O-])C(c2ccc(Cl)cc2Cl)N1 (centres undefined),-6,-2,-10,·,-6,i,2,3
CCOc1ccc(C(=O)COC(=O)c2cc([N+](=O)[O-])ccc2N2CCOCC2)cc1,22,·,·,8,·,i,-3,-16
Cc1ccc(NC(=O)c2oc3ccc(S(=O)(=O)N4CCC5(CC4)OCCO5)cc3c2C)cc1C,17,1,·,·,-3,i,10,-7
CCNc1nc(NCC)n2c(SCC(=O)NCC3CCCCC3)nnc2n1,4,-5,·,-13,0,i,-6,1
Cc1ccc(NC(=O)COC(=O)COc2cccc3c2OC(C)(C)C3)c(C)c1,·,·,·,-13,·,i,2,0
OCC[C@H]1C[C@H](O)[C@@H](O)[C@@]2(CCCCO2)O1,-15,3,-21,-6,6,i,1,-1
Cc1ccc2[nH]c(CCN(C)C)c(CC#N)c2c1,-14,15,-18,-25,5,i,0,1
COC(=O)C1=C(C)OC(N)=C(C#N)C1c1cc(C)sc1C (centres undefined),-6,-11,3,-20,10,i,-4,4
COc1ccccc1S(=O)(=O)Cc1ccc(C(=O)NC(C)c2ccc3c(c2)OCCO3)o1 (centres undefined),-2,-4,-8,-3,-3,i,-8,-3
C=CCNc1nc2ccccc2nc1NS(=O)(=O)c1cccs1,4,-2,-39,·,23,i,2,0
CC1=C(C(=O)O)N2C(=O)C(NC(=O)c3ccccc3Cl)C2SC1 (centres undefined),0,-2,-15,-18,2,i,0,5
CCn1cc(C2=NC(C)(C)CO2)c2ccccc21,-5,-6,-22,·,6,i,1,0
Cc1ccc(SCc2ccc(C(=O)Nc3cc([N+](=O)[O-])ccc3C)cc2)cc1,·,-3,-11,·,5,i,-5,-1
Cc1cccc(-n2c(-c3ccoc3C)n[nH]c2=S)c1,-20,8,·,10,-11,i,-1,3
O=C(NC(Cc1ccccc1)c1ccc2c(c1)OCCCO2)c1ccccc1 (centres undefined),0,-20,-10,·,-3,i,2,-2

# Whole records, looked up by structure.
# OCC[C@H]1C[C@H](O)[C@@H](O)[C@@]2(CCCCO2)O1 across the screens: CSC inhib: -15; eIF4H FP inh: 3; Yeast UUG start: -21; HIV Env fusion: -6; PABP FP inh: 6; Rce1 inhib: i; MT1-MMP act inh: 1; MT1-MMP act inh RFP: -1
# CC1=C(C(=O)O)N2C(=O)C(NC(=O)c3ccccc3Cl)C2SC1 (centres undefined) across the screens: CSC inhib: 0; eIF4H FP inh: -2; Yeast UUG start: -15; HIV Env fusion: -18; PABP FP inh: 2; Rce1 inhib: i; MT1-MMP act inh: 0; MT1-MMP act inh RFP: 5
